# HepG2 – viability loss in HepG2 hepatoma cells – cell-based, ATP luminescence, cherry-pick, activator set 2, cytotoxicity control, dose response (AID 1053143); HepG2 viability, CellTiter-Glo ATP luminescence, 72 h; activity change, negative = cytotoxicity, % at the top dose, mostly 26 µM; hits show AC50 in µM; 3.7% of 3,400 active;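 active = fitted AC50 at most twice the highest valid dose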;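 note: 0 = neutral control and -100 = positive control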
# Active calls of the source: *.
SMILES,HepG2
COc1ccc2nc(NC(=O)Nc3ccccc3)sc2c1,-20%

# Not all compounds are listed; rates above refer to the full screens.
